Compound activity deposited in PubChem by National Center for Advancing Translational Sciences (NCATS).
CtBP-E1A blk = inhibitors of CtBP/E1A interaction; AlphaScreen GST-E1A/His-CtBP binding, 1536-well; active compounds read low; control for the full effect not named in the record; activity change, % (concentration not given with the values); 340,000 compounds, 0.49% hits; AID 651724; in the data active means activity change below about -65%; inconclusive means about -30% to -65%; inactive means above about -30%; further: on the % scale 0 is the no-effect control and ±100 the full control effect
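Protein mix (5X: 125 nM each GST-E1A, His-CtBP) was incubated with pinned compound 2 h at 37 deg C in dark, in 50 mM Tris pH 8.0 buffer with 300 mM NaCl. Glutathione donor and nickel acceptor beads followed; AlphaScreen signal read after 1 h.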
TRPV1 potentiator = human TRPV1 potentiation; Q8NER1; TRPV1-expressing cells, Fluo-8 calcium influx, capsaicin EC20 potentiation; host cell line not named in the record; control for the full effect not named in the record; potentiation, % at 8.33 µM; 320,000 compounds, 0.02% hits; AID 540277; active means potentiation above 80%; inconclusive means 30% to 80%; inactive means below 30%; further: 0% is about no effect
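TRPV1-expressing cells were cultured overnight at 35.5C and loaded with Fluo-8 calcium dye for 40 to 90 min at room temperature. After a 10 s baseline, compound was added and calcium influx was read kinetically for 3 min (ex 480/em 520 nm).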
TRPML1 agonist = human mucolipin-1 channel agonism; Q9GZU1; TRPML1-expressing cells, Ca2+ dye fluorescence, FDSS; host cell line not named in the record; reference of the full effect not given here; activation, % (no concentration beside the values); 410,000 compounds, 0.12% hits; in the data active = activation above about 50%; inconclusive = about 30% to 50%; inactive = below about 30%; further: 0% is about no effect; the text of the record puts the active cut at 80%
Target sequence (Q9GZU1 whole entry, looked up): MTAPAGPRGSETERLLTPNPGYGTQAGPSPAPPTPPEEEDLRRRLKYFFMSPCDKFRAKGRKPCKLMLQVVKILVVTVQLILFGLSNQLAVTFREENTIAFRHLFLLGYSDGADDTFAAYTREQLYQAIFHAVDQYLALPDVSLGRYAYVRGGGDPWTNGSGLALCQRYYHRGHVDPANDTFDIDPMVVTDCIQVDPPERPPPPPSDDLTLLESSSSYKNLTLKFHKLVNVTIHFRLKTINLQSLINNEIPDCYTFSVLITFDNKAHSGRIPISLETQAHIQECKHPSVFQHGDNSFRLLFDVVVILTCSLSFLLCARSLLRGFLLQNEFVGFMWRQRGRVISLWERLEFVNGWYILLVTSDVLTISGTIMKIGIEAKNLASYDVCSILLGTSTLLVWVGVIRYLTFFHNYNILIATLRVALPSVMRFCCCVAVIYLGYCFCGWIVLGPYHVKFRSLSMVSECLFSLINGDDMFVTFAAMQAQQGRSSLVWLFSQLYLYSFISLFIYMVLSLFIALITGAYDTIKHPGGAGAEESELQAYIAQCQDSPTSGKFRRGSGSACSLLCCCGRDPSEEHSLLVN
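Kinetic FDSS Ca2+ read in Tet-induced TRPML1-DL cells (ABD Ca8 dye plus quencher, 45-90 min RT loading): baseline, then compound, then 110 s agonist window; EC80 agonist 54-4 at 4uM final added afterwards for a 110 s antagonist window.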
TRPML1 inh = inhibitors of human TRPML1 channel; Q9GZU1; activity change, negative = inhibition, % (no concentration beside the values); TRPML1-inducible cells, Ca2+ dye fluorescence, FDSS; active compounds read low; inhibition of EC80 agonist-evoked calcium signal; 390,000 compounds, 0.02% hits; in the data active means activity change below about -50%; inconclusive means about -30% to -50%; inactive means above about -30%;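 further: stimulus is agonist 54-4 at its EC80 concentration; on the % scale 0 is the no-effect control and ±100 the full control effect; compound concentration not given in the record; the text of the record puts the active cut at -80%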
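TRPML1-DL cells, Tet-induced overnight (~16 h, 37 °C) at 1,500 cells/well, were loaded with Ca8 no-wash dye plus quencher for 45-90 min at room temperature. Compounds were pinned during FDSS kinetic reading; agonist 54-4 at EC80 (4 uM final) then added.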
D2 PAM = positive allosteric modulators of human D2 dopamine receptor; P14416; DiscoveRx D2 beta-arrestin cells, luminescence, 90 min; 100% = 57 uM dopamine signal; potentiation, % (no concentration beside the values); 360,000 compounds, 0.23% hits; AID 624464; active = potentiation of 50% or more; inconclusive = 30% to 50%; inactive = 30% or less;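 further: compound concentration not given in the record; tested on top of an EC20 dose of dopamine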
Target sequence (P14416 whole entry, looked up): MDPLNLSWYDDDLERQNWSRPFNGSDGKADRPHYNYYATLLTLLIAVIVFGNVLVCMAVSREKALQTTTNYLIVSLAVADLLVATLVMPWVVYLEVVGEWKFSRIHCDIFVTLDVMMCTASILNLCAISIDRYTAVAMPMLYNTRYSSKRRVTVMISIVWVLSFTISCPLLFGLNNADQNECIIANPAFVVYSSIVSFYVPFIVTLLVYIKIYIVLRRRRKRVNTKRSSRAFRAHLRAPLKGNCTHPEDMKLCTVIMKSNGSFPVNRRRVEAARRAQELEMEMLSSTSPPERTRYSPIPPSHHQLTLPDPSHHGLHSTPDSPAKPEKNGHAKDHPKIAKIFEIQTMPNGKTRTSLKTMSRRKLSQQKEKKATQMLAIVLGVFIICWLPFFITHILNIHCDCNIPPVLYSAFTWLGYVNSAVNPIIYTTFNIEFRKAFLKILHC
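PathHunter beta-arrestin assay in DiscoveRx D2 cells. Compounds were added with an EC20 of dopamine (50 nM final) for 90 min at 37 deg C. Luminescence was read 1 h after detection reagent, with 57 uM dopamine as the EC100 control.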
Six1-Eya2 blk = Six1/Eya2 interaction inhibition; 360,000 compounds, 0.56% hits; AlphaScreen GST-Six1/His-Eya2 binding, biochemical; active compounds read low; control for the full effect not named in the record; activity change, % (test concentration not listed); in the data active = activity change below about -65%; inconclusive = about -30% to -65%; inactive = above about -30%; further: on the % scale 0 is the no-effect control and ±100 the full control effect
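GST-Six1 + His-Eya2 (5X stock: 250/500 nM); Tris pH 8.0, 300 mM NaCl, 0.05% BSA, 0.02% Tween 20; GSH donor/Ni acceptor beads; 1 h 37 °C dark; AlphaScreen readout.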
The depositor's hits bear a star; u = inconclusive; x = no result given.

#1 CNc1csc(C)c(C)c1=O
#2 CCOC(=O)CNC(=O)c1cnn2cccnc12
#3 COc1ccc(NC(=O)CN2CCCCCC2)cc1OC
#4 CCOC(=O)c1c(NC(=O)CSc2nnc(C)o2)sc(C)c1C
#5 O=C(O)[C@@H]1CCCN(S(=O)(=O)c2cccc3cccnc23)C1
#6 Cc1sc2nc(CN3CCOCC3)nc(N3CCC(C(N)=O)CC3)c2c1C
#7 O=c1sc(/C=N/Nc2ccccc2)c(Cl)n1Cc1ccccc1
#8 O=C(CC1OC(=O)c2ccccc21)Nc1ccccc1N1CCOCC1 (centres undefined)
compound no.	1	2	3	4	5	6	7	8
CtBP-E1A blk	17.7	3.2	4.2	3.5	-1.1	-7.0	8.6	8.3
TRPV1 potentiator	-4.8	12.9	15.9	-8.7	-40.4	24.3	4.6	-6.9
TRPML1 agonist	-0.1	-0.9	-0.3	0.8	0.3	1.9	2.5	0.2
TRPML1 inh	42.1	-5.9	0.0	53.2	-7.3	3.4	40.9	0.1
D2 PAM	-8.7	10.5	-9.9	-2.4	-0.9	-11.2	0.0	-16.7
Six1-Eya2 blk	2.7	1.2	7.1	-1.5	-5.8	-1.5	-5.5	7.7

#9 COc1ccc(NS(=O)(=O)c2cc3c(cc2C)N(C(C)=O)CCO3)c(OC)c1
#10 CC(C)CN1CCC(CN(C)Cc2nc(-c3cnccn3)no2)CC1
#11 CCSc1nnc(NC(=O)CSc2nc(C)cc(C)n2)s1
#12 OCCN1CCN(c2nc(-c3ccccc3O)nc3ccccc23)CC1
#13 CCOC1=CC(=O)N(Cc2ccccc2)C1
#14 CN(C)C(=O)CSc1ccccc1C(=O)OCC(=O)NC1CC1
#15 O=C(Nc1ccc(Cl)c(S(=O)(=O)N2CCCC2)c1)c1nn(CCO)c(=O)c2ccccc12
#16 O=C1CC(c2ccccc2)=C(c2ccccc2)C1c1ccccc1 (centres undefined)
compound no.	9	10	11	12	13	14	15	16
CtBP-E1A blk	-2.5	-5.0	6.3	-9.2	0.0	0.6	-21.1	18.9
TRPV1 potentiator	-9.6	7.3	3.5	-15.6	x	u	4.3	x
TRPML1 agonist	-0.5	-0.2	0.1	0.4	0.6	0.1	-0.3	0.6
TRPML1 inh	7.8	2.9	2.7	9.5	-11.5	-14.3	0.6	1.9
D2 PAM	-5.4	-7.6	11.7	-9.1	-6.5	-1.3	15.5	-10.0
Six1-Eya2 blk	2.9	-7.3	-4.0	16.5	8.2	6.4	u	-3.5

#17 Cn1c(SCC(=O)N2CCOCC2)nc(O)cc1=O
#18 Cc1cc(=O)oc2c3c(cc(OCC(=O)Nc4cccnc4)c12)OC(C)(C)CC3
#19 COc1cccc(/C=C/C(=O)Nc2ccc3c(c2)OCCO3)c1
#20 CS(=O)Cc1cc(Sc2ccccc2)nc(-c2ccncc2)n1 (centres undefined)
#21 O=C(O)C1C2CCC(O2)C1C(=O)Nc1ccc(OC(F)F)cc1 (centres undefined)
#22 Cc1ccc(S(=O)(=O)N2CCCC2CNC(=O)C(=O)NC2CCCC2)cc1 (centres undefined)
#23 Cn1cccc1C(=O)OCC(=O)N1c2ccccc2NC(=O)C1(C)C
#24 Cc1cccc(NC(=O)COc2cccc3c2CCN(Cc2ccccc2)C3=O)c1C
compound no.	17	18	19	20	21	22	23	24
CtBP-E1A blk	-2.6	5.3	-2.0	0.0	1.7	1.8	x	1.1
TRPV1 potentiator	1.2	0.0	-19.3	-19.3	5.8	5.9	1.4	7.7
TRPML1 agonist	0.3	x	4.0	1.4	-0.4	-0.4	1.9	3.9
TRPML1 inh	-10.2	x	24.9	4.8	8.3	3.5	11.4	17.0
D2 PAM	-7.4	-2.3	-5.4	-6.1	-0.2	-0.6	-1.3	-13.2
Six1-Eya2 blk	1.6	1.0	-7.3	0.1	10.0	0.9	0.6	2.4

#25 Cc1cccc(C(=O)NCC(c2ccco2)N(C)C)c1 (centres undefined)
#26 CCCOc1ccc(N2C(=O)CC(N3CCN(S(=O)(=O)c4ccccc4)CC3)C2=O)cc1 (centres undefined)
#27 CN1CCN(Cc2cn[nH]c2-c2ccc(F)cc2F)[C@@H](c2ccccc2)C1
#28 CC1=C(C(N)=O)C(c2ccc(Cl)cc2Cl)n2ncnc2N1 (centres undefined)
#29 O=C(c1ccc(F)cc1)N(C(=O)c1ccc(F)cc1)c1ncccn1
#30 CCCCNC(=O)Nc1ncn[nH]1
#31 Cc1ccc(-n2c(C)cc(C=C3C(=O)CC(C)(C)CC3=O)c2C)cc1
#32 O=C1C2CCCN2C(c2ccc(Br)cc2)N1c1ccc(F)cc1 (centres undefined)
compound no.	25	26	27	28	29	30	31	32
CtBP-E1A blk	-19.5	5.6	20.1	0.7	6.1	x	7.3	1.7
TRPV1 potentiator	10.2	1.5	14.8	-30.9	8.1	-8.2	19.4	-6.7
TRPML1 agonist	0.1	1.0	1.0	0.1	0.0	2.4	0.6	1.6
TRPML1 inh	-17.5	-2.9	-0.4	-0.3	5.4	2.1	6.6	-6.5
D2 PAM	-7.6	-16.6	-29.5	-28.4	-3.4	0.8	-11.5	-0.8
Six1-Eya2 blk	7.2	-0.6	-0.4	0.0	4.0	2.6	9.8	0.1

Of the compounds above, these contain two or more sulfur atoms:
#4 CCOC(=O)c1c(NC(=O)CSc2nnc(C)o2)sc(C)c1C
#11 CCSc1nnc(NC(=O)CSc2nc(C)cc(C)n2)s1
#20 CS(=O)Cc1cc(Sc2ccccc2)nc(-c2ccncc2)n1 (centres undefined)
compound no.	4	11	20
CtBP-E1A blk	3.5	6.3	0.0
TRPV1 potentiator	-8.7	3.5	-19.3
TRPML1 agonist	0.8	0.1	1.4
TRPML1 inh	53.2	2.7	4.8
D2 PAM	-2.4	11.7	-6.1
Six1-Eya2 blk	-1.5	-4.0	0.1

Following part:
#33 OC(CSc1ccccc1Cl)CN1CCN(c2ccccc2F)CC1 (centres undefined)
#34 O=C(OCCN1CCCC1=O)c1cc(F)c(F)c(F)c1F
#35 O=C(Nc1ccc(N2CCOCC2)cc1)c1csc([C@@H]2O[C@H](CO)[C@H](O)[C@H](O)[C@H]2O)n1
#36 COC(=O)CNC(=O)C1Nc2ccc(OC(F)(F)F)cc2C2C=CCC12 (centres undefined)
#37 CC(C)C(=O)Nc1c2c(nc3ccccc13)N(C)CC2
#38 Cc1cc(C)n(CCCNC(=O)c2ccc(C)c(S(=O)(=O)N3CCOCC3)c2)n1
#39 COC(=O)c1ccc(CNC(=O)CSC(C)C(=O)Nc2cc(C)on2)cc1 (centres undefined)
#40 O=C(N/N=C\c1cc2c(cc1Cl)OCO2)c1cccs1
compound no.	33	34	35	36	37	38	39	40
CtBP-E1A blk	-3.0	-4.4	1.2	6.3	0.1	6.3	3.8	5.5
TRPV1 potentiator	8.3	-7.9	x	x	1.1	15.1	-2.3	-27.3
TRPML1 agonist	4.0	0.1	-0.6	0.1	-0.3	-0.1	-0.2	0.3
TRPML1 inh	-12.1	5.3	x	-26.9	-5.9	6.0	1.0	-6.5
D2 PAM	19.7	0.2	-12.9	-2.3	1.2	5.8	-1.5	-12.2
Six1-Eya2 blk	-4.3	4.4	5.9	2.7	0.5	-0.1	5.8	-0.8

Record cards, from the list above. Order of screens: CtBP-E1A blk	TRPV1 potentiator	TRPML1 agonist	TRPML1 inh	D2 PAM	Six1-Eya2 blk
O=C(N/N=C\c1cc2c(cc1Cl)OCO2)c1cccs1 reads 5.5	-27.3	0.3	-6.5	-12.2	-0.8
Cc1cc(C)n(CCCNC(=O)c2ccc(C)c(S(=O)(=O)N3CCOCC3)c2)n1 reads 6.3	15.1	-0.1	6.0	5.8	-0.1
CC(C)C(=O)Nc1c2c(nc3ccccc13)N(C)CC2 reads 0.1	1.1	-0.3	-5.9	1.2	0.5
OC(CSc1ccccc1Cl)CN1CCN(c2ccccc2F)CC1 (centres undefined) reads -3.0	8.3	4.0	-12.1	19.7	-4.3
O=C(Nc1ccc(N2CCOCC2)cc1)c1csc([C@@H]2O[C@H](CO)[C@H](O)[C@H](O)[C@H]2O)n1 reads 1.2	x	-0.6	x	-12.9	5.9

(cont.)
#41 Cc1ccc2c(C)c(C(=O)N(Cc3ccncc3)CC3CCCO3)oc2c1C (centres undefined)
#42 CCOC(=O)COc1cccc2c(=O)n(CC(=O)NCc3ccc4c(c3)OCO4)ccc12
#43 O=C(NCCCN1CCOCC1)c1ccc2c(c1)N(Cc1ccccc1)C(=O)c1ccccc1S2=O (centres undefined)
#44 CCc1nc2c(OCC(=O)C(C)(C)C)cccn2c1N(C)C(=O)COc1ccccc1
#45 CCN(CC)S(=O)(=O)c1ccc(OC)c(NC(=O)COc2ccccc2[N+](=O)[O-])c1
#46 CC(Cc1ccccc1)N1CCCC1=O (centres undefined)
#47 COc1ccc(-c2c(-c3cc(OC)cc(OC)c3)n(C)c3ccc(-c4ccc(SC)cc4)cc23)cc1
#48 O=C(Cc1cccs1)N/N=C\c1ccc(O)cc1
compound no.	41	42	43	44	45	46	47	48
CtBP-E1A blk	-3.2	7.6	2.0	-2.0	0.0	3.6	-0.4	x
TRPV1 potentiator	-3.8	5.3	-17.5	x	-16.9	x	-3.2	3.9
TRPML1 agonist	-0.3	-0.2	-0.1	3.8	-0.2	0.7	-0.4	0.7
TRPML1 inh	-1.8	10.9	27.4	x	0.0	3.5	-14.3	5.2
D2 PAM	-4.4	-6.1	-18.9	-2.1	-5.2	-12.3	-35.2	-3.0
Six1-Eya2 blk	-1.3	8.8	-0.3	1.3	16.6	2.1	3.8	3.4

Given as tab-separated lines: part of the list above.
no.	SMILES	CtBP-E1A blk	TRPV1 potentiator	TRPML1 agonist	TRPML1 inh	D2 PAM	Six1-Eya2 blk
43	O=C(NCCCN1CCOCC1)c1ccc2c(c1)N(Cc1ccccc1)C(=O)c1ccccc1S2=O (centres undefined)	2.0	-17.5	-0.1	27.4	-18.9	-0.3
44	CCc1nc2c(OCC(=O)C(C)(C)C)cccn2c1N(C)C(=O)COc1ccccc1	-2.0	x	3.8	x	-2.1	1.3

The list continues:
#49 O=C(/C=C/c1ccc(F)cc1)NC(=S)NNC(=O)c1cccnc1
#50 CC1(C)CC(=O)C(/C=N/n2cnc3ccccc3c2=O)=C(O)C1
#51 COc1cc(/C=C2/NC(=O)NC2=O)cc(Br)c1OCc1ccc(C(=O)O)cc1
#52 O=C(N/N=C/c1c(Cl)cccc1Cl)c1cccc(F)c1
#53 CCCCNC(=O)COC(=O)c1cc2c(C)nn(-c3ccccc3)c2s1
#54 CN(C(=O)COC(=O)c1cccnc1Cl)C1CCCCC1
#55 O=C(OCc1ccccc1)/C(=C(\O)c1ccccc1Br)c1ccc(-c2ccccc2)cn1
compound no.	49	50	51	52	53	54	55
CtBP-E1A blk	-8.7	-0.3	x	8.6	7.1	-5.8	-0.4
TRPV1 potentiator	-16.3	-5.1	1.2	-17.2	15.8	x	22.4
TRPML1 agonist	0.0	1.1	-0.5	2.0	-0.7	0.1	0.2
TRPML1 inh	-18.2	27.4	2.7	-1.6	8.7	-6.0	-5.5
D2 PAM	-9.8	-4.5	-2.2	-11.0	-12.1	-23.6	0.6
Six1-Eya2 blk	-25.2	-1.6	-12.8	5.2	3.1	-5.3	-4.9
